Mtb hypoxia rep: reduces hypoxia-regulated biosensor signal in M. tuberculosis; M. tuberculosis hypoxia-regulated fluorescent reporter, fluorescence; fluorescence inhibition, % (test concentration not listed); 300,000 compounds, 0.1% hits; AID 1159583;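 active means 35 to 45% if threefold the growth effect, above 45% if 1.5-fold the growth effect; inactive means the rest, general growth blockers included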;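 further: wells of about 50 µL received 100 nL stock; 0% = vehicle wells and 100% = reference inhibitor wells; whole bacteria with a GFP reporter of the hypoxia response; strong numbers were not always called active; many hits fall short of the cut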
RN4220 kill: kills Staphylococcus aureus RN4220; S. aureus RN4220 growth, OD600, 16 h; inhibition, % (concentration not given with the values); 330,000 compounds, 0.33% hits;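 active means z-score of -3 or lower and OD600 up to 0.18 on both plates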;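 further: plate controls were untreated cells for no effect and reference antibiotic for full effect; stock transfer was 100 nL into about 80 µL; one replicate is shown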
PrP 5UTR inh: inhibition of PrP 5' UTR reporter expression. cell-based PrP 5' UTR mRNA reporter, plate reader. 340,000 compounds, 0.35% hits. inhibition, % (test concentration not listed);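 active means every replicate at 50% or more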;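 further: 0 = median of the neutral control wells; tested in H4 reporter cells; numbers are from one replicate; inactives centre near -14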
ugtP null kill: kills S. aureus RN4220 lacking UgtP. S. aureus RN4220 ugtP deletion, OD600 growth, 16 h; some inactives read as strong as hits. growth inhibition, % (no concentration beside the values). 330,000 compounds, 0.54% hits;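 active means z-score under -3 and OD600 up to 0.15 on both plates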;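 further: plate controls were untreated wells for no effect and antibiotic for full effect; wells of about 80 µL received 100 nL stock; the first replicate is given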
Autofluor counter: flagged as autofluorescent in microsphere protease counterscreen; 360,000 compounds, 3.1% hits; compound autofluorescence counterscreen, microsphere flow cytometry; stronger effect = higher value; fluorescence intensity (concentration not given with the values);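 active means at least 3 SD above the mean of all compounds, about 16000 in these data; inconclusive means too few beads counted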;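 further: 100 nL of 1 mM stock went into each well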
BJeLR lethal: BJeLR cell viability loss; BJeLR (HRASV12) viability, CellTiter-Glo ATP luminescence, 48 h; reference of the scale not given here; inhibition, % (no concentration beside the values); 300,000 compounds, 0.17% hits;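 active means replicate mean above 50%; inconclusive means above 50% but judged a plate artefact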;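 further: 50 nL library stock added to about 25 µL; numbers are from one replicate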
Mtb hypoxia rep growth: also measured in Mtb hypoxia rep; calls as there; growth inhibition, %; measured here: M. tuberculosis growth (absorbance);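 0% = vehicle and 100% = reference antibiotic; read after six days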
Starred values were filed as active, the others as inactive; ? = inconclusive; · = not tested or not shown.

1. CCN(CC(=O)Nc1ccc2c(c1)OCCO2)C(=O)/C=C/c1cccc(OC)c1OC
2. Fc1ccc(CNC(=S)NC2CCCCC2)cc1
3. COC(=O)c1c(NC(=O)COC(=O)c2ccccc2O)sc2c1CCCCC2
4. O=C(CONS(=O)(=O)c1ccc(Cl)cc1)NCCNc1ncc(C(F)(F)F)cc1Cl
5. Cc1cc2nc(CCN(Cc3cccnc3)C(=S)Nc3ccccc3)[nH]c2cc1C
6. COc1ccc(S(=O)(=O)N2CCCCC2)cc1NC(=S)Nc1ccccc1
7. Cc1ccc(NC(=O)COc2ncnc3ccccc23)cc1S(=O)(=O)N1CCOCC1
8. CN(c1ccccc1)S(=O)(=O)c1cccc(C(=O)Nc2ncn[nH]2)c1
9. O=C(CSc1nnc(-c2ccccc2)n1Cc1ccccc1)NNC(=O)c1ccccc1O
10. Brc1ccc(-c2ccc(C=NNc3nncc(-c4ccccc4)n3)o2)cc1

assay / entry | 1 | 2 | 3 | 4 | 5 | 6 | 7 | 8 | 9 | 10
Mtb hypoxia rep growth | -4 | 4 | -1 | -6 | 8 | 5 | -4 | 9 | · | 3
BJeLR lethal | 6 | 2 | -5 | 6 | -1 | -1 | -11 | -8 | -3 | ·
PrP 5UTR inh | -44 | -12 | -2 | -13 | -33 | -12 | -17 | -18 | 2 | ·
RN4220 kill | 5.9 | -0.1 | -5.4 | 4.7 | 0.7 | 0.8 | 4.5 | 8.0 | 14 | -4.5
ugtP null kill | 18 | 14 | -25 | -14 | -6 | 0 | 3 | -2 | 3 | -8
Autofluor counter | · | 2402 | 2163 | 2139 | 9359 | 9521 | 9535 | 4845 | 2408 | ·
Mtb hypoxia rep | 7 | 5 | -14 | -8 | -7 | -1 | 2 | -9 | · | -8

11. CCCn1nnc(NC(=O)c2ccc([N+](=O)[O-])cc2Cl)n1
12. COc1cccc(C(=O)OCC(=O)Nc2ccc(N3CCOCC3)cc2)c1
13. Cc1ccc(S(=O)(=O)N2CCC(C(=O)N[C@@H](C)C(=O)NC3CCS(=O)(=O)C3)CC2)cc1 (stereo partly specified)
14. Cc1onc(-c2ccccc2Cl)c1C(=O)N[C@@H](C)c1ccccc1
15. Cc1ccc(Cn2c(NC(=O)c3ccco3)nc3ccccc32)cc1
16. COCCn1c(SCc2cccnc2)nnc1-c1c[nH]c2ccccc12
17. Cc1ccc(CN(CC(=O)N/N=C/c2ccco2)S(=O)(=O)c2ccc(C)cc2)cc1
18. COc1ccc(CN(C)C(=O)c2ccc(NS(=O)(=O)c3ccc(C)c([N+](=O)[O-])c3)cc2)c(OC)c1OC
19. COc1ccc([C@@H](O)[C@@H](N)c2ccccc2)cc1
20. COc1ccc(S(=O)(=O)N(C)C)cc1NC(=O)COC(=O)C1CC1

assay / entry | 11 | 12 | 13 | 14 | 15 | 16 | 17 | 18 | 19 | 20
Mtb hypoxia rep growth | 8 | 22 | 8 | -4 | · | 9 | · | 1 | -5 | -3
BJeLR lethal | -8 | · | 0 | -4 | 8 | -2 | -2 | 3 | 3 | ·
PrP 5UTR inh | -19 | -20 | -4 | · | -1 | -17 | -20 | -5 | · | -2
RN4220 kill | 1.1 | 3.0 | 7.6 | 2.6 | 7.9 | -8.4 | · | 4.8 | 2.4 | 2.6
ugtP null kill | -3 | 11 | 5 | 4 | -4 | -6 | · | -5 | 6 | 0
Autofluor counter | 2581 | 2958 | · | · | 5883 | 5287 | 2070 | ? | 3097 | 5758
Mtb hypoxia rep | -3 | 19 | 4 | 5 | · | 7 | · | 11 | 6 | -17

21. COc1ccc(C(=O)c2coc3ccc(O)c(CN(C)C)c23)cc1
22. CN1CCN(C(=NO)c2nonc2N)CC1
23. COCCN=C1NC(c2ccccc2)C(C(=O)OC)=C(C)N1Cc1ccccc1 (stereo unspecified)
24. COc1ccc(C(=O)Nc2c(C)csc2C(=O)O)cc1
25. Cc1nc2cc(F)ccc2n1C1CCN(S(=O)(=O)c2ccccc2)CC1
26. Cc1ccc(C)c(NC(=O)C2CC3CCC2C3)c1 (stereo unspecified)
27. CSc1ccccc1NC(=O)C1=CC(c2cccs2)=NS(=O)(=O)N1C
28. CC1CCCN(C(=O)CSc2cnc3ccccc3n2)C1 (stereo unspecified)
29. CC1=NN(c2cc(Cl)c(S(=O)(=O)O)cc2Cl)C(=O)C1
30. CCOc1cc(NC(=S)NCC2CCCO2)c(OCC)cc1NC(=O)c1ccccc1 (stereo unspecified)

assay / entry | 21 | 22 | 23 | 24 | 25 | 26 | 27 | 28 | 29 | 30
Mtb hypoxia rep growth | · | 2 | -13 | 12 | 14 | · | 7 | 17 | 8 | 8
BJeLR lethal | 4 | · | · | 2 | -3 | -3 | 8 | -11 | · | -4
PrP 5UTR inh | -14 | · | · | -19 | -20 | -46 | -21 | -80 | -9 | -5
RN4220 kill | 4.0 | 4.4 | -4.9 | 3.3 | 4.0 | · | 12 | 4.6 | 3.1 | 8.7
ugtP null kill | 6 | -2 | -11 | 0 | -3 | · | -1 | 6 | 2 | -6
Autofluor counter | 6240 | · | · | 4713 | 8223 | 3020 | 6380 | 19588* | 3662 | 24364*
Mtb hypoxia rep | · | -2 | -9 | 2 | 14 | · | 3 | 18 | 13 | 9

Brought forward from above: two compounds, followed by the next part.
29. CC1=NN(c2cc(Cl)c(S(=O)(=O)O)cc2Cl)C(=O)C1
30. CCOc1cc(NC(=S)NCC2CCCO2)c(OCC)cc1NC(=O)c1ccccc1 (stereo unspecified)
31. CCOC(=O)N1CCN(S(=O)(=O)CCNC(=O)c2ccc(F)cc2)CC1
32. Cc1cccc(-n2nc3c(c2NC(=O)c2ccco2)CSC3)c1C
33. O=C(C1=C[C@@H](C2CCCCC2)C[C@@H](OCc2ccc(CO)cc2)O1)N1CCOCC1
34. COc1ccc(/C=C(\NC(=O)c2ccccc2)C(=O)NN=Cc2sccc2C)cc1

assay / entry | 29 | 30 | 31 | 32 | 33 | 34
Mtb hypoxia rep growth | 8 | 8 | 5 | 12 | · | 7
BJeLR lethal | · | -4 | -10 | 2 | -4 | ·
PrP 5UTR inh | -9 | -5 | -25 | -11 | -13 | ·
RN4220 kill | 3.1 | 8.7 | 1.6 | 4.0 | · | 9.4
ugtP null kill | 2 | -6 | 11 | 1 | · | 5
Autofluor counter | 3662 | 24364* | 5063 | 20718* | 3779 | ·
Mtb hypoxia rep | 13 | 9 | -3 | 3 | · | 16

In a second layout: entries from further up
[3] COC(=O)c1c(NC(=O)COC(=O)c2ccccc2O)sc2c1CCCCC2
  Mtb hypoxia rep growth: -1 | BJeLR lethal: -5 | PrP 5UTR inh: -2 | RN4220 kill: -5.4 | ugtP null kill: -25 | Autofluor counter: 2163 | Mtb hypoxia rep: -14

[32] Cc1cccc(-n2nc3c(c2NC(=O)c2ccco2)CSC3)c1C
  Mtb hypoxia rep growth: 12 | BJeLR lethal: 2 | PrP 5UTR inh: -11 | RN4220 kill: 4.0 | ugtP null kill: 1 | Autofluor counter: 20718* | Mtb hypoxia rep: 3

[24] COc1ccc(C(=O)Nc2c(C)csc2C(=O)O)cc1
  Mtb hypoxia rep growth: 12 | BJeLR lethal: 2 | PrP 5UTR inh: -19 | RN4220 kill: 3.3 | ugtP null kill: 0 | Autofluor counter: 4713 | Mtb hypoxia rep: 2

[19] COc1ccc([C@@H](O)[C@@H](N)c2ccccc2)cc1
  Mtb hypoxia rep growth: -5 | BJeLR lethal: 3 | PrP 5UTR inh: · | RN4220 kill: 2.4 | ugtP null kill: 6 | Autofluor counter: 3097 | Mtb hypoxia rep: 6

By substructure, those above with a nitro group on carbon (two)
11. CCCn1nnc(NC(=O)c2ccc([N+](=O)[O-])cc2Cl)n1
18. COc1ccc(CN(C)C(=O)c2ccc(NS(=O)(=O)c3ccc(C)c([N+](=O)[O-])c3)cc2)c(OC)c1OC

assay / entry | 11 | 18
Mtb hypoxia rep growth | 8 | 1
BJeLR lethal | -8 | 3
PrP 5UTR inh | -19 | -5
RN4220 kill | 1.1 | 4.8
ugtP null kill | -3 | -5
Autofluor counter | 2581 | ?
Mtb hypoxia rep | -3 | 11
